Compound activity from PubChem.
HPGD inh – blocks human HPGD enzyme activity; P15428; purified HPGD, NADH fluorescence kinetic, PGE2 substrate; Potency, µM, for inactives: at the highest dose activity change, negative = inhibition, usual class: inhibitors; 150,000 compounds, 4.3% hits; active = well fitted inhibition curve with a large enough effect (not every such curve was filed as active); inconclusive = small, poorly fitted or top-dose-only effect, or another doubt; inactive = no such curve, though single readings can be large or run the other way;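 also: top concentration of the series not given in the record; plate controls included wells without enzyme; inactives centre near -10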
Target sequence (P15428 whole entry, looked up): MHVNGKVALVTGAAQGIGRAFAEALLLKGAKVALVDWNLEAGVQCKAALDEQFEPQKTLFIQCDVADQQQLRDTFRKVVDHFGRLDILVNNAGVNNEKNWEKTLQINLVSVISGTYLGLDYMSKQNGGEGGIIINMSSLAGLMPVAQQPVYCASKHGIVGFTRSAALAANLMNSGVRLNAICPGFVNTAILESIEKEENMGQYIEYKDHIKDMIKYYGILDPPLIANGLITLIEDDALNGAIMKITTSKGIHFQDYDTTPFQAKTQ
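NADH formation kinetics: reaction with 30 uM PGE2 and 1 mM NAD+ (final), 20 nM enzyme, Tris-HCl pH 8 with Tween 20, after 15 min compound preincubation at room temperature. Fluorescence change, last versus first of five reads.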
* hit, by the source's call; ? = inconclusive; & = joins results of further samples; [ ] = remark or other dose. % is scaled to controls: 0 for no effect and ±100 for the full control effect; potency is read from the fitted curve at half-maximal effect. Only part of the results is shown (hit frequency here may not be typical).

Start of the data: the first two compounds, ahead of the listing:
HPGD inh | smiles
-16.9% | Cc1noc(C)c1C(=O)N1CCC2(CCCN(c3ncccn3)C2)CC1
-15.7% | Cc1ccc(NC(=S)NCC(C)C)cc1

Main list (from the top)
HPGD inh | smiles
-16.9% | Cc1noc(C)c1C(=O)N1CCC2(CCCN(c3ncccn3)C2)CC1
-15.7% | Cc1ccc(NC(=S)NCC(C)C)cc1
62.4%[activator] | Cc1cccc(CNc2nc(-c3c(C)noc3C)nc3ccccc23)c1
-3.7% | COc1ccc(/C(N)=N/OC(=O)c2ccc3c(c2)OCO3)cc1
-8.3% | c1ccc(C(Cc2nc(-c3cccnc3)no2)c2ccccc2)cc1
-1.9% | CCC(=NCCN1CCNCC1)C1=C(O)CC(C)(C)CC1=O
15.8µM* | CCOC(=O)c1ccc2c(c1)C1C=CCC1C(C(=O)O)N2 (stereo unspecified)
? | Cn1c(SCCOc2ccccc2Cl)nnc1-c1cccs1
0.7% | CCOC(=O)N1CCN(CCC(=O)Nc2ccccc2OC)CC1
-10.7% | O=S(=O)(Cc1ccccc1)N1CCN(Cc2ccccc2)CC1
-20.0% | O=C(COc1ccccc1Cl)NCCc1ccc2c(c1)OCCO2
-5.5% | COc1ccc(-c2nnc(SCCC(=O)O)n2-c2ccccc2)cc1OC
-8.7% | CCOC(=O)N1CCC(NC(=O)c2cnn3c2NC(c2ccco2)CC3C(F)(F)F)CC1 (stereo unspecified)
-23.8% | CCOc1ccc(-n2c(C)nc3cc(C(=O)NCCN4CCOCC4)ccc32)cc1
-5.3% | C/C(=N\NC(=S)NC(C)C)c1ccc2c(c1)OCCO2
-17.7% | COC(=O)c1sc(NC(=O)CCCn2nc([N+](=O)[O-])cc2C)c(C(=O)OC)c1C
-2.5% | Nc1ncnc2c1nc(Cl)n2C1OC(CO)C(O)C1O (stereo unspecified)
-15.9%&-5.7%&2.7% | COc1cc(C(=O)OCCCN2CCCN(CCCOC(=O)c3cc(OC)c(OC)c(OC)c3)CC2)cc(OC)c1OC
-3.0% | COc1ccc(C2C(C(=O)N3CCN(C)CC3)c3ccccc3C(=O)N2C2CCCCC2)cc1 (stereo unspecified)
-7.1% | COc1ccc(NS(=O)(=O)c2ccc(N/N=C/c3ccc(N4CCOCC4)cc3)c([N+](=O)[O-])c2)cc1
? | CCN(CC)c1ccc(/C=N/NC(=O)Nc2nonc2N)cc1
-7.6% | O=C(C1CCN(S(=O)(=O)c2cccnc2)CC1)N1CCN(c2ccccc2Cl)CC1
-26.4% | O=[N+]([O-])c1cccc(C(=Nc2ccccc2Cl)NO)c1
? | COC(=O)c1c(NC(=O)CN(c2ccc(C)c(C)c2)S(C)(=O)=O)sc2c1CCCC2
? | CCOC(=O)Cn1nc(/C=C/c2ccc(C)cc2)ccc1=O
-5.2% | CCOc1cc(C=O)ccc1OCCCN1C(=O)NC(C)(C)C1=O
-13.1% | COc1ccc(N=c2sc3ccccc3n2C)cc1
-1.2% | O=C(OCc1ccccc1)C1=NNC2C(=O)N(c3ccccc3)C(=O)C12 (stereo unspecified)
-5.9% | CC(C)(C)NC(=O)c1cc(C(C)(C)C)c(O)c(C(C)(C)C)c1
-25.3% | COC(=O)C(C#N)C(c1cccnc1)c1c(C)[nH][nH]c1=O (stereo unspecified)
? | c1ccc(N2CCN(c3nc4cc5c(cc4s3)OCO5)CC2)cc1
-2.5% | O=C(NCC(=O)N(c1ccc2c(c1)OCO2)C(C(=O)NC1CCCC1)c1cccs1)c1ccco1 (stereo unspecified)
-16.8% | Cc1ccccc1OCCCCn1cnc2ccccc21
-19.8% | COc1ccccc1C(CC(=O)Nc1ccc(Cl)cc1)c1ccc(OC(C)C)cc1 (stereo unspecified)
-6.8% | C[C@@H](O)C1NC(=O)[C@H](CCCCN)NC(=O)c2cc([N+](=O)[O-])cc(I)c2OCC[C@@H](C(N)=O)NC1=O (stereo partly specified)
? | O=C1C(c2ccccn2)=[N+]([O-])c2ccccc21
? | N#CC1=C(N)N(c2ccccc2)C(c2cccc([N+](=O)[O-])c2)C1(C#N)C#N (stereo unspecified)
-25.4% | O=S(=O)(c1cc(C(F)(F)F)ccc1Cl)N1CCCCCC1
-7.8% | CC(C)c1c(O)nc(SCC(=O)Nc2ccc3c(c2)CCC3)[nH]c1=O
? | CCc1c(C)c2ccc(OCC(=O)OC(C)C)c(C)c2oc1=O
-13.8% | O=C1C(=O)N(Cc2cccnc2)C(c2ccccn2)/C1=C(/O)c1ccccc1 (stereo unspecified)
-10.7% | COc1ccc(C(=O)On2c(-c3ccc(Br)cc3)nc3ccccc3c2=O)cc1
-12.6% | CCCCC(=O)Nc1ccc(NC(=O)C2CC2)cn1
-25.2% | COc1cc(/C=C2/C(=N)N3C=CSC3=NC2=O)ccc1OCCCOc1c(C)cccc1C
-10.3% | CC12CCC(C(=O)NCc3ccco3)(OC1=O)C2(C)C (stereo unspecified)
-18.0% | COC(=O)c1ccc(/C=C(\C#N)C(=O)NC(C)c2ccccc2)cc1 (stereo unspecified)
-8.7% | Oc1c(Cl)cc(Cl)cc1C=Nc1ccc2c(c1)OCCO2
? | COc1ccc(-c2cc(C(F)(F)F)n3nc(C(=O)NCc4ccco4)cc3n2)cc1OC
-11.5% | CN(C)S(=O)(=O)Nc1ccc(NS(=O)(=O)N(C)C)c(S(=O)(=O)c2ccccc2)c1
? | CCCn1cnc2cc(NCc3cccc(OC)c3O)ccc21
-1.1% | CCc1nc2nc(C)cc(Nc3cccc(C(F)(F)F)c3)n2n1
-9.5% | CCOC(=O)C1=C(C)OC(N)=C(C(=O)OCC)C1c1ccncc1 (stereo unspecified)
-26.1% | COc1cccc(CN2CCN(C(=O)c3cccs3)CC2)c1OC
-3.6% | O=C(CN1CCCCC1)N1CCN(C(=O)CN2CCCCC2)CC1
-16.2% | COC(=O)/C=c1\sc2n(c1=O)C(C)=CC(C)(C)N=2
-3.2% | CN(C)c1ccc(C=C(c2nnnn2-c2ccccc2)c2nnnn2-c2ccccc2)cc1

(next part)
HPGD inh | smiles
-7.0% | Cc1ncc(CO)c(/C=N/N=C/c2ccccc2O)c1O
-11.7% | O=C(NCCc1ccccc1)C1c2ccccc2C(=O)N1C1CC1 (stereo unspecified)
-12.9% | COc1ccc(C(=O)N/N=C/c2ccc(OC)c(OS(=O)(=O)c3ccccc3)c2)cc1
-9.2% | c1ccc2oc(Cc3ccc(Cc4nc5ccccc5o4)cc3)nc2c1
-9.1% | CN1CCN(/C=N/c2c(C#N)cnn2Cc2ccccc2)CC1
11.2µM* | S=c1[nH]nc(-c2ccccc2)n1/N=C/C=C/c1ccco1
-13.5% | NC(=O)SCC(=O)Nc1ccc(Cl)c(Cl)c1
-7.9% | O=C(CSc1nnc(CCc2ccccc2)n1-c1ccc(Cl)cc1)c1ccccc1
? | O=C(CSc1ccc(-c2nc3ccccc3[nH]2)cn1)Nc1ccc2c(c1)OCCO2
1.1% | CC(C)Cn1c(CN2C(=O)c3ccccc3C2=O)nc2ccccc2c1=O
-11.4% | COc1ccccc1NC(=O)C(=N\O)/C(C)=N/O
? | Cc1cccc(C2=NN(c3ccccc3)[C@H](CO)[C@H]2c2ccc(F)cc2)c1
11.2µM* | Cc1ccc(C2=NN(Cc3nnc(-c4ccccc4)o3)C(=O)SC2)cc1
-11.4% | O=C(NC(=S)N1CCN(Cc2ccccc2)CC1)c1ccccc1
-7.4% | CC1=CC(=NOC(=O)/C=C/c2ccccc2)C=C(C)C1=O
0.5% | Cc1c(NC(=O)C(C)N2CC(C)OC(C)C2)c(=O)n(-c2ccccc2)n1C (stereo unspecified)

Next part (5 carried over from the part before).
HPGD inh | smiles
? | Cc1cccc(C2=NN(c3ccccc3)[C@H](CO)[C@H]2c2ccc(F)cc2)c1
11.2µM* | Cc1ccc(C2=NN(Cc3nnc(-c4ccccc4)o3)C(=O)SC2)cc1
-11.4% | O=C(NC(=S)N1CCN(Cc2ccccc2)CC1)c1ccccc1
-7.4% | CC1=CC(=NOC(=O)/C=C/c2ccccc2)C=C(C)C1=O
0.5% | Cc1c(NC(=O)C(C)N2CC(C)OC(C)C2)c(=O)n(-c2ccccc2)n1C (stereo unspecified)
? | C=CCn1c(=NC(=O)c2ccc(S(=O)(=O)N3CCc4ccccc4C3)cc2)sc2cc(S(N)(=O)=O)ccc21
? | Fc1cccc(-c2cc3nc(-c4ccccc4)cc(N4CCC5(CC4)OCCO5)n3n2)c1
-3.0% | O=C(Nc1cccc(S(=O)(=O)N2CCCCCC2)c1)c1ccc2c(c1)OCO2
? | O=c1[nH]c2ccccc2n2c(-c3ccccc3)nnc12
-9.5% | CCOC(=O)c1cccc(NC(=O)c2cccnc2)c1
? | Cc1cc(C)cc(NC(=S)NCCCO)c1
-12.7% | O=C(CNC(=O)c1ccccn1)N/N=C/c1ccccc1
-14.1% | CCOc1ccc(CCNS(=O)(=O)c2cccc3nsnc23)cc1OCC
-1.1% | O=C(CCC1=NS(=O)(=O)c2ccccc2N1)NC1CCCCCCC1
-17.0% | CN(C)c1nc(N)c(C(=O)N=C(N)N)nc1Cl
-14.8% | Cc1cccc(NC(=S)NNC(=O)c2ccccc2Br)c1
-3.6% | Cc1cc(NS(=O)(=O)Cc2ccccc2)no1
-1.8% | O=C(CSc1ncccc1C(=O)O)NCc1ccc(F)cc1
-20.4% | O=C(c1ccc(=O)n(Cc2ccc(Cl)c(Cl)c2)c1)N1CCOCC1
? | Cc1cc(=O)n2[nH]c(-c3ccccc3)cc2n1
-26.0% | Cc1ccc(SCCNC(=S)Nc2ccccc2)cc1

Sorted by value in HPGD inh (rising): five from the list above
| molecule | HPGD inh |
| --- | --- |
| Cc1ccc(SCCNC(=S)Nc2ccccc2)cc1 | -26.0% |
| O=C(c1ccc(=O)n(Cc2ccc(Cl)c(Cl)c2)c1)N1CCOCC1 | -20.4% |
| Cc1cccc(NC(=S)NNC(=O)c2ccccc2Br)c1 | -14.8% |
| Cc1cc(NS(=O)(=O)Cc2ccccc2)no1 | -3.6% |
| O=C(CSc1ncccc1C(=O)O)NCc1ccc(F)cc1 | -1.8% |

(cont.)
HPGD inh | smiles
-1.2% | CCOCC(=O)Nc1ccc(S(=O)(=O)N2CCOCC2)cc1
-9.5% | CCSC1(SCC)N=C(N)C2(C#N)C(c3ccccc3)NC(C)=CC12C#N (stereo unspecified)
-0.7% | Cc1sc2nc(SCC(N)=O)n(C)c(=O)c2c1C
-12.9%&-8.3%&-5.7% | NCCCS(=O)(=O)O
-28.7% | COC(=O)c1sc2nc(N)c(C#N)cc2c1N
-11.2% | CCCc1cc(C(=O)Nc2cccc(C(C)=O)c2)no1
? | CCNC(=S)N(Cc1cc2cc(C)ccc2[nH]c1=O)C1CCCC1
2.5% | O=C(c1csnn1)N1CCC[C@@]2(CCN(Cc3ccccc3)C2)C1
-12.2% | Cn1c2c(c3ccccc31)CC/C2=N\O
-16.6% | CCCCn1nnnc1SCC(=O)Nc1cccc(C)n1
1.3% | O=C(Nc1ccc(N2CCOCC2)cc1)C1CCN(S(=O)(=O)Cc2ccccc2)CC1
-23.0% | O=c1sc2ccccc2n1CCCOc1ccccc1
? | Cc1cccc(C)c1NC(=O)COC(=O)COc1ccc2c(C)cc(=O)oc2c1
-4.1% | Cn1ccnc1C(O)c1ccc(OCc2ccccc2)cc1 (stereo unspecified)
-3.4% | COc1ccc(N2C(=O)CCC(C(=O)N3CCCCCC3)C2c2ccc(OC)c(OC)c2)cc1 (stereo unspecified)
-13.7% | C/C(=N\NC(=O)CC1N=C(Cc2ccccc2)NNC1=O)c1ccccc1 (stereo unspecified)
-9.6% | CCC(C)(C)NC(=O)C(c1ccc(C)cc1)N(Cc1ccco1)C(=O)Cn1nnc2ccccc21 (stereo unspecified)
0.6% | CSc1nc2ccccc2n1CC(=O)Nc1cc(C(F)(F)F)ccc1N1CCOCC1
-20.1% | CCOC(=O)Cn1c(CCC(=O)O)ccc1-c1ccc(F)cc1
-11.3% | Cc1cc(C(=O)c2cnc(/N=C/N(C)C)s2)cc(C)c1O
-12.4% | Cc1ccc2c(CSc3nnc4ccccn34)cc(=O)oc2c1C
1.6% | CCOC(=O)CSc1nnc(CNC(=O)c2cccs2)n1-c1cc(OC)ccc1OC
-6.1% | CCOP(C)(=O)C1(C(=O)OCc2ccccc2)CC1 (stereo unspecified)
-9.5% | c1csc(CNc2ccc3c(c2)OCCO3)c1
-8.0% | CN(C)C(CNC(=O)CCCc1c[nH]c2ccccc12)c1ccco1 (stereo unspecified)
-5.8% | CN(c1ccccc1C(=O)Nc1cccc([N+](=O)[O-])c1)S(C)(=O)=O
? | CC1CCCC(NC(=O)COC(=O)CCC2CCCC2)C1C (stereo unspecified)
-10.3% | Cc1ccsc1C=Nc1c(C)n(C)n(-c2ccccc2)c1=O
? | CN1CCN(c2ccccc2NC(=O)c2ccc(-c3ccc(Cl)cc3Cl)o2)CC1
-8.9% | O=C(O)c1ccc(CSCc2ccco2)cc1
-10.9% | CC(C1CC1)N(C(=O)c1ccccc1O)c1ccccc1 (stereo unspecified)
4.0% | Cc1ccc(CN2CCN(CC(=O)NCc3ccc(Cl)cc3)C2=O)cc1
-5.4% | O=C(CCC1CCCC1)Nc1ccc(Br)cn1
-16.0% | CCOc1ccc(C(=O)NCC(=O)OCc2c(F)cccc2Cl)cc1
-10.3% | O=C(c1ccco1)N(Cc1ccc([N+](=O)[O-])cc1)c1ccc(Cl)cc1
-12.1% | Cc1cccc(OCC(=O)Nc2cccc(-c3nnc(-c4ccccc4)o3)c2)c1C
-12.4% | CCOc1cc(C=C(C(=O)OC)C(=O)OC)ccc1OCc1ccc([N+](=O)[O-])cc1
? | O=C(O)CC[C@@H](C(=O)O)N1C(=O)c2ccccc2C1=O
-15.1% | CC(C)(C)NC(=S)NCc1ccco1
-11.6% | N#CCCn1nc(-c2ccc(Br)cc2)cc1Nc1ccccc1NC(=O)C(F)(F)F
